# Source: PubChem BioAssay (Molecular Libraries Program, Specialized Chemistry Center, University of Kansas)
# MgcRacGAP – inhibition of MgcRacGAP-stimulated Rac1 GTP hydrolysis – biochemical, inorganic phosphate detection, orthogonal assay, confirmation (AID 652142); 2,400 tested, under 10 active; inhibition, %; MgcRacGAP/Rac1F28L GTP hydrolysis, Biomol green phosphate; hits give high values; test concentration not given here; none was called active though about 1 in 100 pass the limit;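 active means inhibition over three standard deviations or about 65%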;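 further: full inhibition control lacks the GAP enzyme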
# * marks the source's active call; other numbers are inactive results. Not all compounds are listed. The share of hits here may be higher or lower than overall.
SMILES,MgcRacGAP
COc1ccc(C2NC(=O)C(C#N)=C(S)N2c2ccccc2)cc1OC (stereo not given),14
CC(=O)c1ccc2c(c1)Nc1ccccc1S2,31
COc1cc(/C=N/NC(=O)c2cc3ccccc3[nH]2)ccc1O,23
CCOCCCNC(=O)CN1CCN(c2ccc(F)cc2)CC1,30
O=C(CSc1nnnn1-c1ccc(F)cc1)c1ccc(O)c(O)c1,19
COc1ccc(NC(=O)C(C)N2CCN(C)CC2)cc1 (stereo not given),26
CCOC(=O)c1cc(NCc2cccs2)ccc1N1CCOCC1,30
Nc1ccc2nc(CCCCc3nc4ccccc4[nH]3)[nH]c2c1,23
Cc1nc(S/C(=C\c2ccc(-c3ccc(C(=O)O)c(Cl)c3)o2)C(=O)O)n[nH]1,12
Nc1ccc2nc(-c3cccnc3)[nH]c2c1,24
CC(=O)c1c(C)c(C)c2n1CCn1c(C)ccc1-2,25
COc1cc(/C=N/N(C)c2ccccc2)ccc1O,-7
Nc1nc(Sc2ccc([N+](=O)[O-])c3nonc23)c2[nH]cnc2n1,58
Cc1nonc1C(=O)N/N=C/c1ccc(O)cc1,20
CCOc1cc(/C=C2\SC(N3CCCC(C)C3)=NC2=O)ccc1O (stereo not given),24
COc1ccc(NC2CCCN(C(=O)C3(C)CCCCC3)C2)cc1 (stereo not given),83
Nc1ccc(N2CCCC2)c(S(=O)(=O)Nc2cccc(C(F)(F)F)c2)c1,30
Cc1nc(Cc2nnc(SCC(=O)N3CCN(c4ccc(O)cc4)CC3)o2)cs1,25
COc1cccc(C(=O)N2CCN(C3CCN(Cc4ccccc4)CC3)CC2)c1OC,25
CCOc1cc(/C=C2\SC(N)=NC2=O)ccc1O,2
COc1cccc(OCC(O)CN2CCN(C)CC2)c1 (stereo not given),27
O=[N+]([O-])c1cccc(S(=O)(=O)N/N=C/c2ccc(O)cc2)c1,31
COc1ccc(/C=N/NC(=O)c2cccc(S(=O)(=O)N3CCCC3)c2)cc1O,34
Cc1nc2ccccc2n2c(O)c(CC(=O)O)cc12,27
Cc1[nH]c2ccccc2c1-c1csc(NC(=O)CSCCO)n1,23
COc1cc(/C=N/Nc2nc(C)cc(=O)[nH]2)ccc1O,24
CCOc1cc(/C=N/NC(=O)C(=O)NCc2cccnc2)ccc1O,30
COc1cc(/C=N/NC(=O)c2nc(C)cc(C)n2)ccc1O,23
NNc1ccc([N+](=O)[O-])c2[nH][nH]c(=O)c12,33
COc1cc(N)c2ncccc2c1SC,29
Cc1nc2c(=O)[nH]c(=S)[nH]c2[nH]c1=O,36
COc1cc(/C(C)=N/NC(=O)C(O)(c2ccccc2)c2ccccc2)ccc1O,26
CC(C(=O)Nc1ccc(F)c(F)c1)N1CCN(C)CC1 (stereo not given),5
Cc1ccn2c(NC3CCCC3)c(-c3ccncc3)nc2c1,24
O=C(N/N=C/c1ccc(F)cc1)c1cc(-c2ccco2)nc2ccccc12,52
COc1cc(/C=N/NC(=O)Cc2nnc(NC(=O)c3ccccc3)s2)ccc1O,24
C#CCOCCOCCOCCNc1nc(N2CCN(C(=O)C([C@@H](C)O)n3cc([C@@H](N)CCCCN)nn3)CC2)nc(N2CCN(C(=O)[C@H](CCCCN)n3cc(CN)nn3)CC2)n1 (stereo not given in full),37
O=[N+]([O-])c1ccc(N2CCN(c3ccc(O)cc3)CC2)c(Cl)c1,24
CCCCN(CC)CCNC(=O)c1cc2c(-c3ccc(Cl)cc3)nn(C)c2s1,19
Cc1ccc(C(=O)Oc2csc(=S)n2C(=O)c2ccc(C)cc2)cc1,24
COCCNCC(=O)Nc1nc(C)cs1,28
COc1ccc(NC(=S)NNS(=O)(=O)c2ccc3ccccc3c2)c(OC)c1,12
O=Nc1ccc(NOC(=O)c2ccccc2)cc1,13
Oc1ccc(NC(=S)Nc2ccc(F)cc2)cc1,17
COc1ccc(N[C@@H]2CCN3C(=O)c4ccccc4[C@@H]3C[C@H]2O)cc1,23
O=C(Sc1n[nH]c(=O)[nH]c1=O)c1ccccc1,65
CCn1c(-c2ccccc2)csc1=Nc1ccc(O)cc1,36
Oc1ccc(NCc2ccccc2OCc2ccccc2F)cc1,28
CCOc1cc(CNc2ccc3[nH]c(=O)[nH]c3c2)ccc1OCC(=O)NC(C)(C)C,34
CCN(CC)S(=O)(=O)c1cccc(C(=O)N/N=C/c2ccc(OC)c(O)c2)c1,20
N#CC(C#N)=C1C=CC=CN1/C(=C\c1ccco1)C(=O)c1ccc(Cl)cc1,17
COc1ccc(OC)c(CN2CCN(Cc3cccc4ccccc34)CC2)c1,19
O=C(/C(=C/c1cccnc1)n1ccnc1)c1ccc(Cl)cc1Cl,41
COc1cc(/C=N/NC(=O)C2(O)c3ccccc3-c3ccccc32)ccc1O,26
CCCN1C(=O)S/C(=C/c2ccc(N3CCOCC3)o2)C1=O,28
Oc1ccc(NC(=S)N=Nc2c(O)[nH]c3ccccc23)cc1,7
O=c1c(-c2ccccc2)c[nH]n1-c1cccc([N+](=O)[O-])c1,21
O=[N+]([O-])c1ccc(Sc2cccc3cccnc23)c([N+](=O)[O-])c1,38
CC1=NN(c2ccccc2)C(=O)C1/C=C1\NC(=S)NC1=O (stereo not given),18
C=C(CN(C)C)C(=O)c1ccc(OC2OC(COC(C)=O)C(OC(C)=O)C(OC(C)=O)C2OC(C)=O)cc1 (stereo not given),34

# Copied from the list.
# Entry of COc1ccc(OC)c(CN2CCN(Cc3cccc4ccccc34)CC2)c1 under MgcRacGAP: 19
# Entry of Oc1ccc(NC(=S)Nc2ccc(F)cc2)cc1 under MgcRacGAP: 17
# Entry of O=c1c(-c2ccccc2)c[nH]n1-c1cccc([N+](=O)[O-])c1 under MgcRacGAP: 21
# Entry of C=C(CN(C)C)C(=O)c1ccc(OC2OC(COC(C)=O)C(OC(C)=O)C(OC(C)=O)C2OC(C)=O)cc1 (stereo not given) under MgcRacGAP: 34
# Entry of O=Nc1ccc(NOC(=O)c2ccccc2)cc1 under MgcRacGAP: 13
# Entry of CCN(CC)S(=O)(=O)c1cccc(C(=O)N/N=C/c2ccc(OC)c(O)c2)c1 under MgcRacGAP: 20
# Entry of CCCN1C(=O)S/C(=C/c2ccc(N3CCOCC3)o2)C1=O under MgcRacGAP: 28
# Entry of COc1ccc(NC(=S)NNS(=O)(=O)c2ccc3ccccc3c2)c(OC)c1 under MgcRacGAP: 12

# Later entries.
SMILES,MgcRacGAP
CCOc1ccccc1NC(=O)C(NCCN(C)C)c1ccccc1 (stereo not given),24
O=C(O)c1cccc2cccc(-c3c4ccc(=O)c(O)c-4oc4c(O)c(O)ccc34)c12,-38
C#CCOCCOCCOCCNc1nc(N2CCN(C(=O)C([C@@H](C)O)n3cc([C@@H](N)CCCCN)nn3)CC2)nc(N2CCN(C(=O)[C@H](CCCN=C(N)N)n3cc(C(N)[C@@H](C)CC)nn3)CC2)n1 (stereo not given in full),35
CC(CN1CCN(Cc2ccccc2)CC1)c1ccccc1 (stereo not given),13
Cc1ccn2c(=S)[nH]nc2c1,15
Nc1ccccc1SSc1ccccc1N,13
Oc1ccc(N2CCN(C(=S)NCCc3ccccc3)CC2)cc1,19
COc1ccccc1-n1c(=O)c2c3c(sc2n2c(=S)[nH]nc12)CCC3,24
CCN1/C(=C/c2ccc3cc(C)ccc3[n+]2CC)Sc2cc(C)ccc21,25
CN1CCC(N(C)CC(=O)Nc2ccc3c(c2)OC(F)(F)O3)CC1,6
CCN1/C(=C/c2ccc3ccccc3[n+]2CC)C=Cc2ccccc21,26
COc1cccc(CN2CCN(C(=O)c3ccco3)CC2)c1OC,15
CCCC(=Nc1ccc(N)cc1)C1=C(O)C(C(=O)OC)C(C)(C)CC1=O (stereo not given),34
Cc1ccsc1/C=N/Nc1cccc(C(=O)O)c1,21
C#CCOCCOCCOCCNc1nc(N2CCN(C(=O)CCCCCCCCCCNC(=O)[C@@H](CCSC)n3cc(CCO)nn3)CC2)nc(N2CCN(C(=O)CCCCCCCCCCNC(=O)[C@H](CO)n3cc(CCCCCN)nn3)CC2)n1,71
O=C(O)c1cc(O)c2c(c1)[C@@H]([C@H]1c3cc(C(=O)O)cc(O)c3C(=O)c3c(O[C@@H]4O[C@H](CO)[C@@H](O)[C@H](O)[C@H]4O)cccc31)c1cccc(OC3O[C@H](CO)[C@@H](O)[C@H](O)[C@H]3O)c1C2=O (stereo not given in full),-14
CCOc1cc(/C=C2\C(=O)ON=C2c2ccccc2)cc(Br)c1O,38
Cc1cc(-c2ccccc2)nc(N/N=C/c2ccc(O)cc2)n1,18
Cc1sc2c3ccsc3ccc2[n+]1C,66
COc1cc(CCNC2=CC(=O)c3ncccc3C2=O)ccc1O,24

# Four entries from above in another layout.
NNc1ccc([N+](=O)[O-])c2[nH][nH]c(=O)c12
  MgcRacGAP: 33
COc1cc(N)c2ncccc2c1SC
  MgcRacGAP: 29
Cc1nc2c(=O)[nH]c(=S)[nH]c2[nH]c1=O
  MgcRacGAP: 36
COc1cc(/C(C)=N/NC(=O)C(O)(c2ccccc2)c2ccccc2)ccc1O
  MgcRacGAP: 26

# An excerpt from above in order of their number in MgcRacGAP, high to low.
SMILES,MgcRacGAP
C#CCOCCOCCOCCNc1nc(N2CCN(C(=O)CCCCCCCCCCNC(=O)[C@@H](CCSC)n3cc(CCO)nn3)CC2)nc(N2CCN(C(=O)CCCCCCCCCCNC(=O)[C@H](CO)n3cc(CCCCCN)nn3)CC2)n1,71
CCN1/C(=C/c2ccc3ccccc3[n+]2CC)C=Cc2ccccc21,26
CN1CCC(N(C)CC(=O)Nc2ccc3c(c2)OC(F)(F)O3)CC1,6

# Continued.
SMILES,MgcRacGAP
CCC(CC)NCc1ccc2c(c1)c1ccccc1n2CC,24
Oc1c(Br)cc(Br)cc1C=Nc1ccc2c(c1)OCCO2,20
C/C(=N\Nc1cccc2cccnc12)c1ccc[nH]1,25
Oc1ccc(-c2cn3c(n2)SCC3)cc1,19
COc1cc(C=C2NC(=O)NC2=O)ccc1O,15
COc1cc(/C=C/CN2CCN(CCC(C)C)C(CCO)C2)ccc1O (stereo not given),22
COc1cc2c(cc1OC)C1(CCCC1)C(N)=C2C#N,19
Cc1cc(O)ccc1Nc1nc(-c2cccs2)cs1,29
COc1ccc(CN2CCN(Cc3ccc4ccccc4c3)CC2)cc1OC,37
N#Cc1ccccc1OCCCN1CCC(Cc2ccccc2)CC1,23
COc1ccccc1NS(=O)(=O)c1ccc(C)c(C(=O)N2CCN(c3ccc(O)cc3)CC2)c1,19
Cc1c(N(C)C)nc2ccccc2c1N,28
COc1ccccc1Nc1n[nH]c(=S)s1,43
Nc1n[nH]c(=S)n1/N=C1/C(=O)Nc2ccccc21,90
Cc1ccc(/C=N/n2c(-c3cccnc3)n[nH]c2=S)s1,18
CCOC(=O)c1c(/N=C/C2=C(O)CCCC2=O)sc(C)c1C,19
Cc1c(N=Nc2ccc(N(C)C)cc2)c(=O)n(-c2ccccc2)n1C,26
CCN(CC)c1ccc(/C=C2/SC(=O)N(C(C)C)C2=O)o1,31
COc1ccc(C(=O)/C=C(\C)Nc2ccc(NC(C)=O)cc2)cc1,25
S=C(NCCCN1CCOCC1)Nc1ccc(Nc2ccccc2)cc1,32
COc1cc(CNCc2cc(OC)c(OC)c(OC)c2)cc(OC)c1,6
Oc1cccc(Nc2ccccc2)c1,25
N#C/C(=C/c1ccc(N2CCOCC2)o1)c1nc2ccccc2[nH]1,30
Cc1ccc(Nc2n[nH]c(=S)s2)cc1,23
C/C(=N\Nc1nc2ccccc2[nH]1)c1ccc(C)o1,9
N#CCCN1CCN(CCC#N)c2ccccc21,29
CN(C)CCNc1ccc2ncn3c4ccc(O)cc4c(=O)c1c23,24
CCOC(=O)C1=C(C)Nc2ccc(C)cc2S1,24
COc1ccc(S(=O)(=O)N2CCC(N3CCN(c4ccccc4OC)CC3)CC2)cc1,15
Cc1cc(=O)c2c(O)c(O)ccc2o1,22
Oc1ccc(NC(=S)N=Nc2c(O)[nH]c3ccc(Br)cc23)cc1,27
COCC(C)NCc1ccc(OC)c(Br)c1 (stereo not given),11
CCN(CC)c1ccc(Nc2nc(-c3cccnc3)cs2)cc1,29
Cc1cc(C)c(C)c(S(=O)(=O)Nc2ccc(O)cc2)c1C,25
CCOC(=O)c1c(OCC)[nH]c2c1cc(O)c1ccccc12,28
CCN(CC)C(=O)C1CCCN(Cc2ccc3c(c2)OCO3)C1 (stereo not given),20
COc1cc(N)c2ncccc2c1OC,16
CC1(C)CC(=O)C=C(Nc2ccc(O)cc2)C1,14
Nc1ccc2[nH]c(=S)sc2c1,45
CCOc1cccc2cc(C(=O)Oc3ccc(OC)cc3)c(=O)oc12,22
CC(=O)OCCNc1cc(N2CCN(C)CC2)c2noc3c2c1C(=O)c1ccccc1-3,19
Oc1ccc(Br)cc1C=Nc1ccc2[nH]ncc2c1,27
O=C(CCCC(=O)c1ccccc1)Nc1ccc(O)cc1,23
CC(=O)N1CCN(c2ccc(N)cc2)CC1,28
COc1cccc(-c2cc(C(=O)N3CCN(c4ccc(F)cc4)CC3)no2)c1,31
O=C1C=CC(=O)c2c(O)c(N3CCN(CCO)CC3)c(Cl)c(O)c21,80
COc1cccc2[nH]c(C(=O)NN)c(N)c12,42
Cc1nc2ncccn2c1-c1csc(Nc2ccc(O)cc2)n1,15
CN(C)c1ccc(N=C/C=C2/N(C)c3ccccc3C2(C)C)cc1,9
O=[N+]([O-])c1cccc(/C=N/n2c(-c3cccnc3)n[nH]c2=S)c1,33
CC(C)C(=O)Nc1ccc(Nc2ccccc2)cc1,28
Oc1ccc(/C=N/Nc2nccnc2Cl)cc1,29
C#CCOCCOCCOCCNc1nc(N2CCN(C(=O)[C@H](CCCCN)n3cc([C@@H](N)C(C)CC)nn3)CC2)nc(N2CCN(C(=O)[C@H](Cc3cc4ccccc4[nH]3)n3cc([C@@H](N)C(C)CC)nn3)CC2)n1 (stereo not given in full),54
O=C(Nc1ccc(C2=NCCN2)cc1)c1ccc(C(=O)Nc2ccc(C3=NCCN3)cc2)c([N+](=O)[O-])c1,66
ON=C1c2ccccc2-c2ccc(O)cc21,13
COCCNCC(=O)Nc1ccc(C)c(S(=O)(=O)N2CCCCC2)c1,23
C=CCn1c(SCC(=O)Nc2ccc(N(C)C)cc2)nnc1-c1cccc(C)c1,16
CCS(=O)(=O)c1nn2c(N)c(/C=C3/C=CC(=O)C(OC)=C3)c(=O)nc2s1,21
CCN1CCN(CC(=O)Nc2cc(C(F)(F)F)ccc2OCCOC)CC1,17
COc1cccc(OC)c1C(=O)N1CCN(Cc2cccnc2)CC1,8
